AmpC inh no det – inhibitors of E. coli AmpC beta-lactamase without detergent | AID 585 | hit rate 1.8% among 71,000 | AmpC nitrocefin hydrolysis, absorbance 480 nm, no detergent; potencies from a single point are estimates | P00811 | Potency, µM (highest dose often 28.7 µM), for inactives: at the top dose activity change, negative = inhibition; active = falling curve, for most hits resting on a single point; inconclusive = weak or doubtful change; inactive = flat or rising curve; note: % of control where 0% means no effect; about half of the hits show no inhibition at the top dose; a quarter of the inactives give rising signals
Target sequence (P00811 whole entry, looked up): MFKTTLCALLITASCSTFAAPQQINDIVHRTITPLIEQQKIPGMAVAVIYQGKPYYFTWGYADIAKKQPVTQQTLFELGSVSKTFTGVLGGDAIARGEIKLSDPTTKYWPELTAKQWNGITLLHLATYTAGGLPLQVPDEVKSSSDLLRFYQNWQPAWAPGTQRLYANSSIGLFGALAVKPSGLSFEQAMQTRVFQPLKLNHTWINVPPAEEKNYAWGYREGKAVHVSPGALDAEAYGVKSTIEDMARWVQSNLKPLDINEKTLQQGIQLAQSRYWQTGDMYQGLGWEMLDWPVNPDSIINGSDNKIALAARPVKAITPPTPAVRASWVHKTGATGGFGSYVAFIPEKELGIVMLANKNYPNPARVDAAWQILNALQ
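Enzyme, pH 7.0 phosphate. Compound titrations were pre-incubated with AmpC for 15 min at room temperature before nitrocefin (stock 800 uM) addition; product formation was recorded at 480 nm every 20 s for 4 min.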
The depositor's hits bear a star; u = inconclusive; [ ] = another dose, or the depositor's remark. Potency is the fitted concentration of half-maximal effect.

SMILES	AmpC inh no det
COc1ccc(C(=O)NCCCn2ccnc2)cc1	-6%
Cc1ccccc1OCCCC(=O)Nc1ccc(N2CCOCC2)cc1	56%
CCCc1nnc(NC(=O)c2c(O)c3cccc4c3n(c2=O)CC4)s1	33%
O=C(Nc1ccccc1)N1CCC2(CC1)CCN(C(=O)c1csnn1)CC2	48%
COc1ccc(CNC(=O)c2ccccc2SC)cc1	101%
Cc1ccc(S(=O)(=O)NC(=O)NC(C)(C)C)cc1	1%
COC(=O)c1cc(CSc2nnc(-c3ccccc3)c(-c3ccccc3)n2)oc1C	1%
Clc1cccc(CSc2nnc([C@@H]3CCCN3)o2)c1	10%
CCCS(=O)(=O)N1CCN(Cc2ccncc2)CC1	-8%
COc1ccccc1-c1nnc(SCC(=O)N2CCOCC2)o1	7%
O=C(C1CCCCC1)N1CCC(n2nnc3ccccc32)CC1	11%
O=C(NCc1cccnc1)c1ccccc1Br	3%
O=C(CSc1ncnc2c1oc1ccccc12)Nc1ccc2c(c1)OCCO2	26%
O=C(COC(=O)c1ccccc1S(=O)(=O)N1CCCCC1)NCC(F)(F)F	6%
Cc1c(NC(=O)OCCNC(=O)Nc2ccccc2)sc(=S)n1C	-15%
CC(NC(=O)C1CCCN(S(=O)(=O)c2cccs2)C1)c1ccccc1 (stereo unspecified)	19%
COCCN(C(=O)Nc1ccccc1)C(C)c1cccnc1 (stereo unspecified)	0%
CCc1nc(C)cn1S(=O)(=O)c1cc(Br)c(C)cc1OC	118%
Cc1ccc(N2CC(C(=O)OCc3ccccc3)CC2=O)cc1 (stereo unspecified)	28%
N#CCCN1CCN(S(=O)(=O)c2ccc(S(=O)(=O)N3CCCCCC3)cc2)CC1	-1%
Cc1cc(C)nc(N2CCC(C(=O)Nc3nnc(C)s3)CC2)n1	9%
COc1ccc(S(=O)(=O)N2CCN(CCO)CC2)cc1-c1nnc2c3ccccc3c(C)nn12	92%
COC(=O)C1=CNC=C(C(=O)OC)C1c1ccc(C(=O)OC)cc1	18%
CC1(C)Cc2ccccc2C(=O)N1	-4%
C[N+]1([C@H](CO)Cc2c[nH]c3ccccc23)Cc2ccccc2C1	6%[5.75 µM]
COCCSc1nnc(NC(=O)COC)s1	-10%
c1ccc(CSc2nnc(-c3ccco3)n2Cc2ccco2)cc1	-13%
CC(NC(=O)Cn1nc(C(=O)O)c2ccccc2c1=O)c1ccccc1 (stereo unspecified)	-2%
O=C(CSc1nc2ccccc2n1CC(=O)NCc1ccccc1)NCc1ccco1	u
O=C(c1cnccn1)N1CCC2(CCCN(c3ccc(-c4ccccc4)cc3)C2)CC1	137%

At a glance, part of the list above.
SMILES	AmpC inh no det
COC(=O)C1=CNC=C(C(=O)OC)C1c1ccc(C(=O)OC)cc1	18%
CC1(C)Cc2ccccc2C(=O)N1	-4%

Later entries.
SMILES	AmpC inh no det
CCOc1ccc(NC(=O)CSc2nccn2C)cc1	-3%
Brc1ccccc1-c1nnc(CSc2nnc3sc4ccccc4n23)o1	-2%
COc1ccc(OC)c(C2CC(=O)N3CN(c4ccccc4F)CSC3=C2C#N)c1 (stereo unspecified)	4µM*[single pt active]
CC1CCc2c(sc3c2C2=NS(=O)(=O)CCN2C=N3)C1 (stereo unspecified)	27%
Nc1ccccc1C(=O)OC1CSC1	-24%
CCOC(=O)C1=C(C)NC(C)=C(C(=O)OCC)C1C(=O)O	-2%
O=C(Nc1ccccc1F)C1CCCN(S(=O)(=O)c2cccc3cccnc23)C1 (stereo unspecified)	8%
Cc1cc(C)nc(SCC(=O)c2cc3ccccc3oc2=O)n1	13%
O=C(O)C1CC=C(Cl)CC1C(=O)NCC1OCCc2ccccc21 (stereo unspecified)	-8%
Cc1cc(S(=O)(=O)N2CCOCC2)ccc1F	-7%
CCOC(=O)c1oc2ccccc2c1CN1CCN(C(=O)c2ccccc2)CC1	109%
COCCn1c(Sc2ccccc2)nc2c1c(=O)[nH]c(=O)n2C	3%
CC(=O)c1c(C)[nH]c(C(=O)CSc2nnc(CN3CCCCCC3=O)n2-c2ccccn2)c1C	38%
CC[N+](C)(CC)CCOC(=O)C1c2ccccc2Oc2ccccc21	12%[12.8 µM]
COc1ccccc1CNc1nc(-c2ccccc2OC)nc2ccccc12	37%
Cc1cc2nc(C3CCN(Cc4nnnn4Cc4cccs4)CC3)[nH]c2cc1C	53%
CC1(C)CC(=O)C(C=Nc2ccc3cn[nH]c3c2)=C(O)C1	-4%
O=C(O)c1ccccc1-c1ccccc1C(=O)NCc1ccco1	0%
COc1cccc(C(=O)Nc2c(C)n[nH]c2C)c1	16%
CN(C)S(=O)(=O)c1ccc(C(=O)Nc2ccc(Cl)cc2)cc1	-7%
C=CCOc1ccccc1OC[C@H](O)CNC(C)C	-3%[12.8 µM]
ICCc1ccccc1	-10%
N[C@H]1[C@@H](C(=O)O)[C@H]2C=C[C@H]1C2	-2%[5.75 µM]

Compounds shown so far that have a carbonyl joined to an NH by a bond outside any ring (22):
SMILES	AmpC inh no det
COc1ccc(C(=O)NCCCn2ccnc2)cc1	-6%
Cc1ccccc1OCCCC(=O)Nc1ccc(N2CCOCC2)cc1	56%
CCCc1nnc(NC(=O)c2c(O)c3cccc4c3n(c2=O)CC4)s1	33%
O=C(Nc1ccccc1)N1CCC2(CC1)CCN(C(=O)c1csnn1)CC2	48%
COc1ccc(CNC(=O)c2ccccc2SC)cc1	101%
Cc1ccc(S(=O)(=O)NC(=O)NC(C)(C)C)cc1	1%
O=C(NCc1cccnc1)c1ccccc1Br	3%
O=C(CSc1ncnc2c1oc1ccccc12)Nc1ccc2c(c1)OCCO2	26%
O=C(COC(=O)c1ccccc1S(=O)(=O)N1CCCCC1)NCC(F)(F)F	6%
Cc1c(NC(=O)OCCNC(=O)Nc2ccccc2)sc(=S)n1C	-15%
CC(NC(=O)C1CCCN(S(=O)(=O)c2cccs2)C1)c1ccccc1 (stereo unspecified)	19%
COCCN(C(=O)Nc1ccccc1)C(C)c1cccnc1 (stereo unspecified)	0%
Cc1cc(C)nc(N2CCC(C(=O)Nc3nnc(C)s3)CC2)n1	9%
COCCSc1nnc(NC(=O)COC)s1	-10%
CC(NC(=O)Cn1nc(C(=O)O)c2ccccc2c1=O)c1ccccc1 (stereo unspecified)	-2%
O=C(CSc1nc2ccccc2n1CC(=O)NCc1ccccc1)NCc1ccco1	u
CCOc1ccc(NC(=O)CSc2nccn2C)cc1	-3%
O=C(Nc1ccccc1F)C1CCCN(S(=O)(=O)c2cccc3cccnc23)C1 (stereo unspecified)	8%
O=C(O)C1CC=C(Cl)CC1C(=O)NCC1OCCc2ccccc21 (stereo unspecified)	-8%
O=C(O)c1ccccc1-c1ccccc1C(=O)NCc1ccco1	0%
COc1cccc(C(=O)Nc2c(C)n[nH]c2C)c1	16%
CN(C)S(=O)(=O)c1ccc(C(=O)Nc2ccc(Cl)cc2)cc1	-7%

Some values from above.
AmpC inh no det, ICCc1ccccc1 stands at -10%
AmpC inh no det, C=CCOc1ccccc1OC[C@H](O)CNC(C)C stands at -3%[12.8 µM]
AmpC inh no det, Cc1cc2nc(C3CCN(Cc4nnnn4Cc4cccs4)CC3)[nH]c2cc1C stands at 53%

Assay outcomes (PubChem)

Only part of the results is shown; rates above refer to the full screens.
